Menin MLL FP FL: menin-MLL binding inhibition, fluorescein peptide; Fluorescence polarization, fluorescein-MLL peptide displacement from menin; FP activity change, % at 61.4 µM; 290,000 tested, under 10 active; AID 1766; inconclusive = falling polarisation curve, or a change in total fluorescence; inactive = total fluorescence flat and polarisation flat or rising; no compound was filed as active; the % refers to the polarisation; negative = inhibition;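 further: % of control where 0% means no effect; inhibitors lower the polarisation; unlabelled MLL peptide was the positive control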
TRPV1 potentiator: potentiators of human vanilloid receptor 1 (TRPV1). potentiation, % at 8.33 µM. Q8NER1. TRPV1-expressing cells, Fluo-8 calcium influx, capsaicin EC20 potentiation; host cell line not named in the record; control for the full effect not named in the record. AID 540277. hit rate 0.02% among 320,000; active means potentiation above 80%; inconclusive means 30% to 80%; inactive means below 30%; further: 0% is about no effect
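Fluo-8 calcium influx in TRPV1-expressing cells, kinetic read (ex 480/em 520 nm). Compound added and read 3 min for agonist activity, followed by capsaicin at EC20 final and 2 min further read for enhancement.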
TRPML1 ag: human mucolipin-1 channel agonism | Q9GZU1 | TRPML1-expressing cells, Ca2+ dye fluorescence, FDSS; host cell line not named in the record; reference of the full effect not given here | activation, % (concentration not given with the values) | hit rate 0.12% among 410,000; in the data active = activation above about 50%; inconclusive = about 30% to 50%; inactive = below about 30%; further: 0% is about no effect; the text of the record puts the active cut at 80%
Target sequence (Q9GZU1 whole entry, looked up): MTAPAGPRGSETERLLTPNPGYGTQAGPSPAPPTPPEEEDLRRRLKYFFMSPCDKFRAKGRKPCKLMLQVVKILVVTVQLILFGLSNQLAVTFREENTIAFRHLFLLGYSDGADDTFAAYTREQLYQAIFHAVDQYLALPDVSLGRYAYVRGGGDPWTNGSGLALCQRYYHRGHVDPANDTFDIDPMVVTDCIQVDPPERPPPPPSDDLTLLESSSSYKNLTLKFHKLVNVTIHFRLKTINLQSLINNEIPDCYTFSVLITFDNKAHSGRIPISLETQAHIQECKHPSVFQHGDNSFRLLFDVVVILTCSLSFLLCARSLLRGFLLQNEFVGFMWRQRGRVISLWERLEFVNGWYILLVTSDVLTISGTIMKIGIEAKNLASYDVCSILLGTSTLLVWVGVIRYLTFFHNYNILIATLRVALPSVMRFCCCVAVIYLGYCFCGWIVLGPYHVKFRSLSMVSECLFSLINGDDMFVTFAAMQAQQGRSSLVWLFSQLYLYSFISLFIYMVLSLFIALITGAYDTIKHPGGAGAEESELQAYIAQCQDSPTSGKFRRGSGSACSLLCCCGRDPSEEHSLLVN
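Cells: TRPML1-DL, 1X Tet inducer, ~16 h at 37 degrees C/5% CO2. Dye: ABD Ca8 no-wash + quencher, 45-90 min RT. Read: 10 s baseline, compound add, 110 s agonist phase; 54-4 EC80 (4uM final), 110 s antagonist phase.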
ClpP mod: qHTS Assay for Activators of ClpP | AID 651965, 2013 | purified B. subtilis ClpP, FRET peptide cleavage, 20 min | hit rate 1.9% among 340,000 | Potency, µM (titrated, usually from 57.5 µM), without a hit: at the highest dose activity change, negative = active | ATP-dependent Clp protease proteolytic subunit (Bacillus subtilis (strain 168)), P80244; active = well fitted falling curve with a large enough effect; inconclusive = small, poorly fitted or top-dose-only effect; inactive = no such curve, though single readings can be large or run the other way; further: potency means the concentration at half of the fitted maximal effect; the source files actives as falling curves though it sought activators and does not explain the sign; nearly all actives have a fitted effect of over 65% in size; many hits overshoot -100%
Target sequence (P80244 whole entry, looked up): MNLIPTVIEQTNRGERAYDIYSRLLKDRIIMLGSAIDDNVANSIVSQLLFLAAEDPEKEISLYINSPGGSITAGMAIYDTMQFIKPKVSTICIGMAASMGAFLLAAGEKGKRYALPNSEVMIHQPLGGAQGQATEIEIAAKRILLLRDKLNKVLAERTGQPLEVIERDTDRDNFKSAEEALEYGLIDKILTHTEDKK
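Purified B. subtilis ClpP, 10 microg/mL final in Tris/HCl pH8 with KCl, BSA, glycerol and Tween-20, cleaved an Abz/nitrotyrosine-quenched decapeptide. Fluorescence (ex 320, em 430) was read at 0 and 20 min at room temperature. Delta was normalized to 5.8 microM ADEP and DMSO/no-enzyme controls.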
Sfp PPTase inh: Sfp phosphopantetheinyl transferase inhibition. Potency, µM, without a hit: max response, negative = inhibition, actives largely listed as inhibitors. Biochemical Sfp PPTase activity, qHTS. hit rate 3.5% among 310,000. Q9F4F7; active means well fitted inhibition curve with a large enough effect; inconclusive means small, poorly fitted or top-dose-only effect, or another doubt; inactive means no such curve, though single readings can be large or run the other way;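 further: the enzyme is Sfp with the accession as filed and its product quenches rhodamine fluorescence; potency means the concentration at half of the fitted maximal effect; 0% = enzyme reaction without inhibitor and -100% = no enzyme wells; top concentration of the series not given in the record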
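Fluorescence-quenching assay: 15 nM Sfp-PPTase preincubated 15 min at room temperature with compound, then 5 uM rhodamine-CoA and 12.5 uM BHQ-2-labelled YbbR peptide added. Fluorescence (ex 525/em 598 nm) read at start and after 30 min; difference gives rate.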
TRPML1 blocker: inhibitors of human TRPML1 channel; TRPML1-inducible cells, Ca2+ dye fluorescence, FDSS; stronger effect = lower value; inhibition of EC80 agonist-evoked calcium signal; Q9GZU1; hit rate 0.02% among 390,000; activity change, negative = inhibition, % (test concentration not listed); in the data active means activity change below about -50%; inconclusive means about -30% to -50%; inactive means above about -30%;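 further: stimulus is agonist 54-4 at its EC80 concentration; on the % scale 0 is the no-effect control and ±100 the full control effect; compound concentration not given in the record; the text of the record puts the active cut at -80%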
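TRPML1-DL cells, Tet-induced overnight (~16 h, 37 °C) at 1,500 cells/well, were loaded with Ca8 no-wash dye plus quencher for 45-90 min at room temperature. Compounds were pinned during FDSS kinetic reading; agonist 54-4 at EC80 (4 uM final) then added.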
PINK1 expr mod: PINK1 expression modulation; hit rate 0.2% among 410,000; Potency, µM (top dose mostly 76.6 µM), for the others: at the top dose activation (PINK1 increase), hits mostly activators; PINK1 immunofluorescence, high-content cytometry, 24 h; active = well fitted activation curve with a large enough effect; inconclusive = small, poorly fitted or top-dose-only effect; inactive = flat fitted curve, though single readings scatter; cell line not stated here;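 further: potency means the concentration at half of the fitted maximal effect; % of control where 0% means no effect; nearly all actives have a fitted effect of over 65% in size; a mitochondrial uncoupler was the plate control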
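A stable cell line was treated with compounds at 5 concentrations for 24 hours, with CCCP as control. PINK1 levels and mitochondrial localization were measured by immunofluorescence with mitochondrial, cell and nuclear markers after fixation, read by laser-scanning cytometry.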
The depositor's hits bear a star; & = joins results of further samples; [ ] = dose if it differs, or a comment.

What do the screens show for `Cc1ccc(C(=O)c2coc3cc([N+](=O)[O-])c(O)c([N+](=O)[O-])c23)cc1`?
Menin MLL FP FL: 12.4; TRPV1 potentiator: 5.7; TRPML1 ag: -0.2; ClpP mod: -3.2%; Sfp PPTase inh: 39.8µM*; TRPML1 blocker: 6.3; PINK1 expr mod: -3.0%

How did CC(C)Cc1cc(C(=O)NCc2cccs2)no1 do in these assays?
Menin MLL FP FL: 7.8; TRPV1 potentiator: -18.3; TRPML1 ag: 1.2; ClpP mod: -0.8%; Sfp PPTase inh: 8.2%; TRPML1 blocker: 39.7; PINK1 expr mod: 0.1%

Results for COc1ccccc1C(=O)N(Cc1ccc(C)o1)C1CCS(=O)(=O)C1 (configuration not stated) ?
TRPV1 potentiator: 3.3; TRPML1 ag: 0.2; ClpP mod: 0.5%; Sfp PPTase inh: 28.4%; TRPML1 blocker: 1.4; PINK1 expr mod: -0.2%

Results for CC1(C(=O)NS(=O)(=O)Cc2ccccc2C(F)(F)F)CCN1C(=O)C/C=C/c1ccccc1 (configuration not stated) ?
TRPML1 ag: -1.0; ClpP mod: -1.4%; PINK1 expr mod: 2.0%

How did Cc1ccc(-n2cc(CN3CCC(O)(c4ccccn4)CC3)c(-c3ccc(F)cc3)n2)cc1 do in these assays?
Menin MLL FP FL: -0.1; TRPV1 potentiator: -13.4; TRPML1 ag: 3.9; Sfp PPTase inh: -18.1%; TRPML1 blocker: 55.9; PINK1 expr mod: -1.5%

Results for Cc1cc(C(F)F)n2nc(C(=O)Nc3cccnc3Cl)nc2n1 ?
Menin MLL FP FL: 0.7; TRPV1 potentiator: 18.4; TRPML1 ag: -0.5; ClpP mod: 0.6%; Sfp PPTase inh: -6.7%; TRPML1 blocker: 3.9; PINK1 expr mod: -1.9%

How did COc1ccc(OC)c(NC(=O)Cc2c(C(=O)O)n(C)c3ccccc23)c1 do in these assays?
Menin MLL FP FL: -5.0; TRPV1 potentiator: -5.0; TRPML1 ag: 1.2; Sfp PPTase inh: -2.1%; TRPML1 blocker: 2.2; PINK1 expr mod: 1.1%

Results for CO/N=C/NC(=O)Cc1cn(-c2ncc(C(F)(F)F)cc2Cl)c2ccccc12 ?
Menin MLL FP FL: 2.4; TRPV1 potentiator: -5.5; TRPML1 ag: 0.6; ClpP mod: -15.9%; Sfp PPTase inh: 13.0%; TRPML1 blocker: 20.0; PINK1 expr mod: 2.2%

How did O=[N+]([O-])c1ccc(N2CCOCC2)cc1NC(c1ccccc1)c1ccccc1 do in these assays?
TRPV1 potentiator: 28.1; TRPML1 ag: 1.1; ClpP mod: 0.6%; Sfp PPTase inh: -0.8%; TRPML1 blocker: 2.9; PINK1 expr mod: -0.6%

How did O=C(CN1CCCC1)Nc1nc(-c2ccc(Cl)cc2)cs1 do in these assays?
TRPML1 ag: -0.6; ClpP mod: -1.7%; PINK1 expr mod: 0.9%

Results for CCN(CC)c1ccc(/C=N/n2nnnc2N)c(O)c1 ?
Menin MLL FP FL: 5.4; TRPV1 potentiator: -9.7; TRPML1 ag: -0.6; ClpP mod: -22.6%; Sfp PPTase inh: -16.7%; TRPML1 blocker: 5.9; PINK1 expr mod: 3.5%

How did COc1ccc(NC(=O)CCn2cccc2)cc1 do in these assays?
Menin MLL FP FL: -4.3; TRPV1 potentiator: -0.3; TRPML1 ag: 0.2; ClpP mod: -2.4%; Sfp PPTase inh: 9.4%; TRPML1 blocker: 6.3; PINK1 expr mod: 0.0%

Results for O=C(c1cc(-c2ccccn2)nc2ccc(Br)cc12)N1CCN(S(=O)(=O)c2ccccc2)CC1 ?
Menin MLL FP FL: 3.8; TRPV1 potentiator: 0.4; TRPML1 ag: 0.3; Sfp PPTase inh: 4.7%; TRPML1 blocker: -5.3; PINK1 expr mod: 6.1%

What do the screens show for `Cc1ccc(S(=O)(=O)Nc2ccc(C(=O)N3CCCC3)cc2)c(C)c1NS(C)(=O)=O`?
Menin MLL FP FL: -1.8; TRPV1 potentiator: 5.0; TRPML1 ag: -0.6; Sfp PPTase inh: 19.3%; TRPML1 blocker: 3.9; PINK1 expr mod: 1.0%

Results for N#C/C(=C\c1c(N2CCOCC2)nc2ccccn2c1=O)C(=O)NC1CCS(=O)(=O)C1 (configuration not stated) ?
Menin MLL FP FL: -3.2; TRPV1 potentiator: 1.0; TRPML1 ag: -0.1; ClpP mod: -10.9%; Sfp PPTase inh: 10.8%; TRPML1 blocker: 4.1; PINK1 expr mod: -1.0%

Results for CCN1C(=C2C(=O)c3ccccc3C2=O)C=Cc2ccccc21 ?
Menin MLL FP FL: inconclusive; TRPV1 potentiator: -9.3; TRPML1 ag: 2.5; ClpP mod: -1.6%; Sfp PPTase inh: 5.5%; TRPML1 blocker: -9.9; PINK1 expr mod: 7.7%[38.3 µM]

Results for CC(C)CCNC(=O)C(=O)NCCC1=CCCCC1 ?
Menin MLL FP FL: 1.8; TRPV1 potentiator: -5.0; TRPML1 ag: 1.0; ClpP mod: -4.1%; Sfp PPTase inh: -0.7%; TRPML1 blocker: 6.9; PINK1 expr mod: 0.3%

How did O=C(Nc1nc2cc3c(cc2s1)OCCO3)c1ccncc1 do in these assays?
Menin MLL FP FL: 8.2; TRPV1 potentiator: -12.8; TRPML1 ag: -0.9; ClpP mod: inconclusive; Sfp PPTase inh: 1.6%; TRPML1 blocker: 32.9; PINK1 expr mod: 1.7%

Results for CCOC(=O)c1c(C)[nH]c(C(=O)OC)c1CCC(=O)OC ?
Menin MLL FP FL: 0.1; TRPV1 potentiator: inconclusive; TRPML1 ag: 0.5; ClpP mod: -7.3%; Sfp PPTase inh: -3.7%; TRPML1 blocker: 18.7; PINK1 expr mod: 0.0%

How did COc1ccc(NC(=O)CN(C)CC(=O)N(C)C2(C#N)CCC(C)CC2)cc1 (configuration not stated) do in these assays?
TRPV1 potentiator: -2.7; TRPML1 ag: 0.3; ClpP mod: -1.6%; TRPML1 blocker: 13.9; PINK1 expr mod: 0.2%

Results for CCN(CC)/[N+]([O-])=N/Oc1cc(O/N=[N+](\[O-])N(C)C)c([N+](=O)[O-])cc1[N+](=O)[O-] ?
Menin MLL FP FL: -5.1; TRPML1 ag: 1.1; Sfp PPTase inh: -20.4%; TRPML1 blocker: 43.4

What do the screens show for `Cc1n[nH]c(C)c1S(=O)(=O)N1CCC(C(=O)O)CC1`?
Menin MLL FP FL: 1.1; TRPV1 potentiator: 1.1; TRPML1 ag: 0.2; ClpP mod: 1.8%; Sfp PPTase inh: -1.2%; TRPML1 blocker: 2.8; PINK1 expr mod: -0.5%

What do the screens show for `COc1ccc(NC(=O)c2nnn(CC(=O)Nc3ccc(C)c(C)c3)c2N)cc1OC`?
TRPML1 ag: -1.2; ClpP mod: 73.4%; TRPML1 blocker: -6.6; PINK1 expr mod: 1.2%

Results for FC(F)(F)c1ccccc1-c1nccc(NCc2ccccc2)n1 ?
Menin MLL FP FL: -0.3; Sfp PPTase inh: 8.5%; PINK1 expr mod: 1.5%

Results for Cc1ccccc1NC(=O)N1C2CCCC1CC(NC(=O)C(C)(C)C)C2 (configuration not stated) ?
Menin MLL FP FL: 0.3; TRPV1 potentiator: -6.5; TRPML1 ag: 1.4; ClpP mod: 1.8%; Sfp PPTase inh: 4.7%; TRPML1 blocker: 0.6; PINK1 expr mod: 0.0%

What do the screens show for `Cc1c(C(=O)O)oc2ccc(S(=O)(=O)N3CCCC3)cc12`?
Menin MLL FP FL: -6.9; TRPV1 potentiator: -13.7; TRPML1 ag: 0.0; ClpP mod: 1.0%; Sfp PPTase inh: 9.1%; TRPML1 blocker: 0.5; PINK1 expr mod: -0.4%

Results for COc1ccc(NC(=S)NC2CCCCC2)c(OC)c1 ?
Menin MLL FP FL: -4.0; TRPV1 potentiator: -8.9; TRPML1 ag: -0.8; Sfp PPTase inh: -4.6%; TRPML1 blocker: -10.8; PINK1 expr mod: 2.0%

Results for COc1ccc(C(=O)Nc2cc(Cl)ccc2-n2cncn2)c(OC)c1OC ?
TRPV1 potentiator: -2.0; TRPML1 ag: -0.5; ClpP mod: -2.5%; TRPML1 blocker: 18.6; PINK1 expr mod: 0.4%

What do the screens show for `O=C(Cn1c(NCCCO)nc2ccccc21)c1ccc(Cl)cc1`?
Menin MLL FP FL: -0.5; TRPV1 potentiator: inconclusive; ClpP mod: -2.0%; Sfp PPTase inh: -4.6%; PINK1 expr mod: 1.2%

How did CC(=O)NCCNc1nc2c(-c3ccccc3)nnn2c2ccccc12 do in these assays?
Menin MLL FP FL: -19.1; TRPV1 potentiator: inconclusive; TRPML1 ag: 1.4; ClpP mod: 4.3%; Sfp PPTase inh: 1.6%; TRPML1 blocker: 9.3; PINK1 expr mod: 2.4%

Results for COc1cc([C@@H]2c3cc4c(cc3[C@H](O)[C@H]3COC(=O)[C@H]23)OCO4)cc(OC)c1OC ?
Menin MLL FP FL: 2.2&0.6&-2.1&0.1; TRPV1 potentiator: 7.4; TRPML1 ag: -0.1&0.1; ClpP mod: 0.0%&1.1%; Sfp PPTase inh: -12.5%&8.3%&-0.3%&23.4%; TRPML1 blocker: -9.3; PINK1 expr mod: 5.6%&4.4%

What do the screens show for `Cc1ccc(S(=O)(=O)/C(C#N)=C/c2c(N3CCC(C(N)=O)CC3)nc3c(C)cccn3c2=O)cc1`?
Menin MLL FP FL: inconclusive; TRPV1 potentiator: 17.4; TRPML1 ag: 1.3; ClpP mod: 3.7%; Sfp PPTase inh: -10.6%; TRPML1 blocker: 8.6; PINK1 expr mod: -0.8%

What do the screens show for `O=C(O)C1=CC(O)[C@@H](O)C(O)C1` (some centres not stated)?
Menin MLL FP FL: -2.6; Sfp PPTase inh: -21.3%; PINK1 expr mod: 0.1%

How did CCS(=O)(=O)N1Cc2ccccc2CC1C(=O)NCCc1c[nH]c2ccccc12 (configuration not stated) do in these assays?
Menin MLL FP FL: -2.6; TRPV1 potentiator: 0.2; TRPML1 ag: -1.2; ClpP mod: 4.4%; Sfp PPTase inh: 1.8%; TRPML1 blocker: -0.1; PINK1 expr mod: 0.1%
